# Source: PubChem BioAssay (National Center for Advancing Translational Sciences (NCATS))
# SARS PLP yeast = inhibitors of SARS-CoV papain-like protease in yeast; Potency, µM (highest dose often 32.9 µM), for the others: at the top dose activity, positive = growth rescue; S. cerevisiae expressing SARS-CoV PLpro, growth rescue; control for the full effect not named in the record; actives 0.19% (n = 330,000); active means well fitted rising curve with a large enough effect; inconclusive means small, poorly fitted or top-dose-only effect; inactive means no such curve, though single readings can be large or run the other way; further: 0% is about no effect; nearly all actives have a fitted effect of over 55% in size; growth read by luminescence after 48 h
# Cruzain inh Det = inhibitors of Trypanosoma cruzi cruzain with detergent; P25779; purified cruzain, Z-FR-AMC fluorescence, 0.01% Triton; Potency, µM, for inactives: max response, negative = inhibition, most hits filed as inhibitors; actives 0.43% (n = 200,000);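 further: plate controls were neutral wells for no effect and buffer without enzyme for full effect; nearly all actives have a fitted effect of over 40% in size; top concentration of the series not given in the record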
# Target sequence (P25779 123-467 limits assumed): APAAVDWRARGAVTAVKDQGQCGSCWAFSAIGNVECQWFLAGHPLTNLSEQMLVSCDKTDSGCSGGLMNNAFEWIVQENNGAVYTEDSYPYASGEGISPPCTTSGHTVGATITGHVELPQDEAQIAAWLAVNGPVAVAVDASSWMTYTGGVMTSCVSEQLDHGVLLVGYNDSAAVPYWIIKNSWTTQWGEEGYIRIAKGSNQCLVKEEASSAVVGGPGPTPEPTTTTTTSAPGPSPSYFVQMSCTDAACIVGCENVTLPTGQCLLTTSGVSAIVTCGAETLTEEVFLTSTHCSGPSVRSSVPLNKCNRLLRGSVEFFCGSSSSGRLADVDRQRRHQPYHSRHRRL
#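 In this qHTS format, compounds are incubated with 1.5 nM cruzain for 15 min at room temperature before 2 uM Z-FR-AMC is added. Release of AMC is followed at 360/450 nm, and progress is taken as the 60 s fluorescence difference.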
# Cruzain inh noDet = inhibitors of Trypanosoma cruzi cruzain without detergent; purified cruzain, Z-FR-AMC fluorescence, no detergent; Potency, µM, for inactives: max response, negative = inhibition, usual class: inhibitors; actives 2.3% (n = 200,000); AID 1476;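 further: plate controls were enzyme without inhibitor for no effect and buffer without enzyme for full effect; nearly all actives have a fitted effect of over 40% in size; top concentration of the series not given in the record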
#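 Detergent-free condition (0.00005% Triton X-100) in acetate buffer pH 5.5 with DTT. 1.5 nM enzyme and compound were pre-mixed 15 min, then 2 uM Z-FR-AMC substrate added; reaction progress from fluorescence change between first and third reads (60 s).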
# Lassa entry inh = Lassa virus entry inhibition. Lassa virus pseudotype entry inhibition, cell reporter; control for the full effect not named in the record. Potency, µM (doses to about 37.9 µM), without a hit: at the highest dose activity change, negative = inhibition, most hits filed as inhibitors. actives 1.2% (n = 300,000); active means well fitted inhibition curve with a large enough effect; inconclusive means small, poorly fitted or top-dose-only effect, or effect the other way; inactive means flat fitted curve, though single readings scatter; tested in HEK293 cells; further: on the % scale 0 is the no-effect control and ±100 the full control effect; nearly all actives have a fitted effect of over 50% in size; luciferase read-out
# 2A StopGo = FMDV 2A StopGo reporter, luciferase signal | human cells with a luciferase reporter of 2A StopGo recoding; control for the full effect not named in the record | Potency, µM (highest dose often 57.9 µM), inactives show top-dose signal change, negative = less light | actives 1.2% (n = 410,000); active = well fitted falling curve with a large enough effect; inconclusive = small, poorly fitted or top-dose-only effect; inactive = no such curve, though single readings can be large or run the other way; tested in HEK293T cells; further: on the % scale 0 is the no-effect control and ±100 the full control effect; nearly all actives have a fitted effect of over 45% in size; luciferase light after 4 h
# NS1 function inh = blocks influenza NS1 protein function; S. cerevisiae slowed by influenza A NS1, growth recovery by OD600; Potency, µM (top dose mostly 46.1 µM), without a hit: at the highest dose activity, positive = more growth; actives 0.4% (n = 270,000); AID 2326; active means well fitted rising curve with a large enough effect; inconclusive means small, poorly fitted or top-dose-only effect; inactive means no such curve, though single readings can be large or run the other way; further: nearly all actives have a fitted effect of over 50% in size
#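 Growth recovery, yeast-based: influenza A NS1 expressed in S. cerevisiae causes slow growth, and suppressors are detected by OD600. The parent strain without NS1 is used as positive control.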
# RE007 growth inh = less growth of the S. pombe RE007 Vpr strain; actives 0.21% (n = 360,000); Potency, µM (highest dose often 92.2 µM), for the others: at the top dose activity change, negative = less growth; S. pombe RE007 Vpr strain, BacTiter-Glo ATP luminescence, 24 h; control for the full effect not named in the record; active = well fitted falling curve with a large enough effect; inconclusive = small, poorly fitted or top-dose-only effect; inactive = no such curve, though single readings can be large or run the other way;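 further: on the % scale 0 is the no-effect control and ±100 the full control effect; nearly all actives have a fitted effect of over 50% in size; the assay follows cell death caused by Vpr and the record does not say whether a fall means rescue or toxicity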
#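 Fission yeast RE007 carrying one integrated HIV-1 vpr copy, seeded at OD 0.01 in PMG+AL medium with 23 nL pinned compound. Grown 24 h at 30 degrees; viability read by BacTiter-Glo luminescence after 5 min.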
# MARV entry inh = inhibitors of Marburg virus binding or cell entry; Marburg virus pseudotyped entry inhibition, cell reporter; control for the full effect not named in the record; about a third of the inactives were read at about 46 µM; Potency, µM (titrated, usually from 37.8 µM), inactives show at the top dose activity change, negative = inhibition, usual class: inhibitors; actives 1.8% (n = 300,000); AID 540276; active = well fitted inhibition curve with a large enough effect; inconclusive = small, poorly fitted or top-dose-only effect, or effect the other way; inactive = flat fitted curve, though single readings scatter; tested in HEK293 cells; about a fifth of its hits are not listed in these tables; further: on the % scale 0 is the no-effect control and ±100 the full control effect; luciferase read-out
# Numbers without * were called inactive; ? = inconclusive; . = not tested or not shown; [ ] = dose if it differs, or a comment. Unless noted, the call rests on the fitted dose curve; in most records, active means well fitted curve in the direction sought with a large enough effect; inconclusive means small, poorly fitted or top-dose-only effect, or another doubt; inactive means no such curve, though single readings can be large; an effect the other way counts as inactive or inconclusive. Potency means the concentration at half of the fitted maximal effect.
SMILES,SARS PLP yeast,Cruzain inh Det,Cruzain inh noDet,Lassa entry inh,2A StopGo,NS1 function inh,RE007 growth inh,MARV entry inh
COc1ccc(Cn2ccn(CC(=O)Nc3cc(C)ccc3C)c(=O)c2=O)cc1,.,-6.9%,?,-22.2%[46.1 µM],1.0%,.,.,.
COC(=O)c1ccc2c(=O)[nH]c(COC(=O)c3cccc(S(=O)(=O)N4CCOCC4)c3)nc2c1,-1.5%,.,.,0.8%,17.4%,.,-6.0%,-1.3%[46.1 µM]
O=C(NC(=S)Nc1ccc(N2CCCCC2)cc1)c1cccs1,-16.2%,-8.5%,-14.3%,?,11.5%,-0.5%,?,?
CCn1nc(C(=O)OCC(=O)NC(C)C)c2ccccc2c1=O,-1.6%,.,.,4.1%,-10.9%,.,-11.8%,-1.1%[46.1 µM]
COc1ccc(C(=O)OC2C[C@H]3CC[C@@H](C2)N3O)cc1OC (stereo partly drawn),-1.8%,.,.,0.7%[46.1 µM],-3.9%,2.7%,3.4%,?
O=C(c1ccc(F)cc1)C1CCN(C(=O)N2CCOCC2)CC1,-3.7%,5.5%,10.3%,-0.8%,-5.5%,-1.4%,4.3%,-0.7%
COc1ccc(NC(=O)CSc2nnc(-c3ccncc3)n2C)cc1,3.7%,.,.,21.0%[46.1 µM],-10.6%,.,20.2%,6.7%[46.1 µM]
CCN(C(=O)C1CCCN(c2ncnc3c2nc2n3CCCCC2)C1)c1cccc(Cl)c1 (stereo not drawn),-56.3%,.,.,?,?,-66.9%,-9.4%,.
CCSc1ccccc1C(=O)Nc1cc(C)on1,-2.1%,3.5%,-7.2%,-2.4%,-10.5%,-2.9%,?,-2.1%
COc1ccc(-c2noc(COc3ccc(C)cc3C)n2)cc1OC,.,-8.7%,?,19.6%[46.1 µM],2.8%,.,.,.
COc1ccc(C(=O)N/N=C/C(Br)=C/c2ccccc2)cc1,-37.3%,-6.2%,13.0%,6.2%,-6.3%,-11.2%,-17.9%,-2.4%
O=C(c1ccc(S(=O)(=O)N2CCCC2)cc1)N(Cc1ccco1)C1CCS(=O)(=O)C1 (stereo not drawn),0.5%,.,.,.,-23.4%,-3.4%,13.9%,.
Cc1ccc(-c2nc(NC(=O)CSc3nnc(C)s3)ns2)cc1,15.8%,-7.9%,3.4%,.,44.5%[activator],-3.6%,8.5%,.
Cc1cccc(C)c1NC(=O)CS(=O)CC(=O)NC1CCN(Cc2ccccc2)CC1 (stereo not drawn),-3.4%,1.3%,-1.5%,-16.5%,-23.4%,-4.5%,-6.4%,?
Cc1cc(Nc2cccc(Cl)c2C)n2ncnc2n1,23.5%,2.4%,2.9%,-24.0%,?,-11.1%,12.6%,15.3%
CSc1ccc(C(=O)N2CCC(n3nccc3NC(=O)C3CC3)CC2)cc1,-3.6%,.,.,24.3%[46.1 µM],-2.8%,7.0%,-6.0%,4.6%[46.1 µM]
CCOC(=O)c1cc(-c2ccccc2)n(-c2cccc(C(=O)Nc3cccc(C(C)=O)c3)c2)c1C,.,-0.6%,?,-30.9%[46.1 µM],-9.6%,.,.,.
COc1cc(NC(C)CCCN)c2ncccc2c1Oc1ccccc1 (stereo not drawn),-24.4%,-2.0%,?,10.9%,-20.5%,9.4%,9.0%,?
COc1ccc(Cn2c(=O)oc3ccccc32)cc1F,-0.1%,.,.,-2.9%,9.2%,2.0%,9.6%,-18.3%
CN(C(=O)Cn1cc(C(F)(F)F)ccc1=O)c1c(N)n(Cc2ccccc2)c(=O)[nH]c1=O,-0.3%,.,.,5.5%,-11.8%,1.6%,4.8%,-9.0%[46.1 µM]

# Compound profiles (already shown).
# Results for CSc1ccc(C(=O)N2CCC(n3nccc3NC(=O)C3CC3)CC2)cc1 → SARS PLP yeast: -3.6%; Cruzain inh Det: .; Cruzain inh noDet: .; Lassa entry inh: 24.3%[46.1 µM]; 2A StopGo: -2.8%; NS1 function inh: 7.0%; RE007 growth inh: -6.0%; MARV entry inh: 4.6%[46.1 µM]
# Results for O=C(c1ccc(S(=O)(=O)N2CCCC2)cc1)N(Cc1ccco1)C1CCS(=O)(=O)C1 (stereo not drawn) → SARS PLP yeast: 0.5%; Cruzain inh Det: .; Cruzain inh noDet: .; Lassa entry inh: .; 2A StopGo: -23.4%; NS1 function inh: -3.4%; RE007 growth inh: 13.9%; MARV entry inh: .
# Results for COc1ccc(Cn2c(=O)oc3ccccc32)cc1F → SARS PLP yeast: -0.1%; Cruzain inh Det: .; Cruzain inh noDet: .; Lassa entry inh: -2.9%; 2A StopGo: 9.2%; NS1 function inh: 2.0%; RE007 growth inh: 9.6%; MARV entry inh: -18.3%

# Further entries follow.
SMILES,SARS PLP yeast,Cruzain inh Det,Cruzain inh noDet,Lassa entry inh,2A StopGo,NS1 function inh,RE007 growth inh,MARV entry inh
CC(SCc1ccccc1)C(=O)Nc1ccccc1F (stereo not drawn),3.5%,.,.,.,13.8%,-0.6%,-2.4%,.
O=C(Nc1ccc(Cl)cc1)N1CCC(c2nc(-c3cccs3)no2)CC1,-10.2%,-5.7%,-12.4%,-2.3%,0.0%,-51.6%,3.3%,-5.1%
COc1ccc(S(=O)(=O)NCC(c2ccc3c(c2)OCO3)N2CCOCC2)cc1 (stereo not drawn),3.6%,.,.,-26.2%,6.4%,.,-2.4%,-16.7%
CCN(CC)c1ccc(/C=C(\C#N)C(=O)c2ccc(Br)cc2)cc1,-2.3%,-9.4%,?,?,-17.9%,7.5%,?,?
COc1ccc(CNc2cc(C)nc3ccc(OC)cc23)cc1,19.5%,.,.,.,-28.7%,17.3%,-8.1%,?
Cc1ccc(Cl)cc1N1CCN(C(=O)Cc2csc(Nc3nc(=S)[nH]c4ccccc34)n2)CC1,1.7%,.,.,-0.1%,-3.6%,1.0%,-23.6%,0.8%[46.1 µM]
COc1cccc(-c2nc(N3CCCC3)c3ccccc3n2)c1O,0.1%,.,.,6.1%,-11.2%,-3.6%,9.4%,-10.4%[46.1 µM]
Clc1ccccc1-c1nn2c(Cn3cnc4ccccc43)nnc2s1,-15.3%,-14.2%,-26.8%,0.9%,-5.5%,-129.2%,-3.0%,-6.8%
Cc1ccc(C)c(OCC(=O)NNC(=O)CSC(=S)N2CCCC2)c1,-5.3%,.,.,-4.9%,1.1%,.,28.0%,6.9%
O=C(NCc1ccco1)c1c(F)c(F)c(F)c(C(=O)NCc2ccco2)c1F,0.2%,.,.,-19.6%,-25.5%,7.4%,-2.8%,-3.1%[46.1 µM]
CC1CN(C(=O)N2c3ccccc3Sc3ccccc32)CC(C)O1 (stereo not drawn),-0.8%,-4.1%,20.9%,?,?,-28.2%,10.8%,?
Cc1cc(C(=O)CC#N)c(C)n1CC(F)(F)F,0.2%,1.8%,2.4%,-13.8%,-25.8%,6.3%,-0.6%,?
Cc1cccc(C)c1NC(=O)CSc1nc2ccccc2c2nc(CCc3c(C)n[nH]c3C)nn12,.,0.4%,27.6%,-18.2%[46.1 µM],-2.0%,.,.,.
Cc1ccc(NC(=O)c2cc(S(=O)(=O)N(C)C)ccc2N2CCCC2)cc1S(=O)(=O)N(C)C,-0.3%,.,.,-14.0%,-6.5%,.,1.7%,-6.1%
Cc1nn(CC#N)c(=O)n1-c1ccc(Cl)cc1,1.0%,.,.,0.5%,-19.6%,.,29.1%,?
c1ccc2c(c1)CSc1ccccc1C2C1=NCCN1 (stereo not drawn),-1.6%,-5.2%,2.3%,-15.9%,-2.2%,28.4%,4.7%,?
N#CCC(=O)Nc1ccc(C(=O)Nc2cccc(S(N)(=O)=O)c2)cc1,-0.6%,.,.,7.4%,-9.4%,11.6%,9.0%,-8.1%[46.1 µM]
Cc1ccc(S(=O)(=O)N2CCN(S(=O)(=O)N3CCCCCC3)CC2)cc1,0.5%,.,.,-19.7%[46.1 µM],-2.5%,-1.3%,-2.9%,-12.4%[46.1 µM]
COc1ccc(Nc2ncc3c(n2)CCN(C(=O)OC(C)(C)C)C3)cc1,.,-7.9%,-2.1%,-28.4%[46.1 µM],-29.3%,.,.,-4.0%[46.1 µM]
C=CCn1c(NCc2ccc(OC)cc2O)nc2ccccc21,4.0%,.,.,.,49.1%[activator],0.4%,-3.4%,.
CCOC(=O)C1CCCN(C2CC(=O)N(c3cccc(C(F)(F)F)c3)C2=O)C1 (stereo not drawn),-26.4%,3.6%,14.9%,-4.1%,-4.2%,-65.5%,8.91µM*,-20.5%
C/C(=N\NC(=O)CNC(=O)c1ccco1)c1ccc(Br)cc1,0.1%,.,.,?,-15.1%,-5.1%,0.7%,-9.1%[46.1 µM]
CCn1cc(C2=NOC(C(=O)Nc3c(C)nn(Cc4ccc(F)cc4)c3C)C2)c(C)n1 (stereo not drawn),-3.1%,-0.6%,10.2%,.,?,-10.5%,-13.1%,0.0%
O=C(NCc1ccc2c(c1)OCO2)c1cc(=O)[nH]c2ccccc12,-0.6%,.,.,.,3.6%,-5.4%,9.1%,.
O=C1CC(c2ccc(F)cc2)Cc2nc(NCC3CCCO3)ncc21 (stereo not drawn),2.6%,-0.8%,-1.9%,?,?,5.8%,17.7%,-0.6%
CCCCNC(=O)c1cnc2c(-c3ccc(OCC)c(OCC)c3)c(C)nn2c1-c1ccccc1,.,-2.6%,14.3%,0.0%[46.1 µM],?,.,.,.
NC(=O)c1cc([N+](=O)[O-])ccc1NCCc1ccccc1,-2.3%,.,.,.,25.0%,-2.5%,3.8%,.
CC1(C(=O)O)Cc2ccccc2C(=O)O1 (stereo not drawn),18.4%,6.4%,13.9%,?,-22.8%,18.4%,121.7%,6.7%

# Not a hit list; overall some 4.8% were active at least once.
